HPGD inh: inhibitors of human 15-hydroxyprostaglandin dehydrogenase (HPGD). P15428. purified HPGD, NADH fluorescence kinetic, PGE2 substrate. Potency, µM, inactives show at the highest dose activity change, negative = inhibition, usual class: inhibitors. actives 4.3% (n = 150,000). AID 894; active = well fitted inhibition curve with a large enough effect (not every such curve was filed as active); inconclusive = small, poorly fitted or top-dose-only effect, or another doubt; inactive = no such curve, though single readings can be large or run the other way;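 note: top concentration of the series not given in the record; plate controls included wells without enzyme; inactives centre near -10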
Target sequence (P15428 whole entry, looked up): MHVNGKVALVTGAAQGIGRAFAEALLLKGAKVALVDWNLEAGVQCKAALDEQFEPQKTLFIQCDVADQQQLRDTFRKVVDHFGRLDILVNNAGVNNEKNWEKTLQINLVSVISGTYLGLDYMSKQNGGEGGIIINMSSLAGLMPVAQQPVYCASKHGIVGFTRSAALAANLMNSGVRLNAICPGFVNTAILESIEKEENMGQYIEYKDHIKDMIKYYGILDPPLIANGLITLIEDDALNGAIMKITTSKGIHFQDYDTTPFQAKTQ
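20 nM HPGD preincubated 15 min at room temperature with compound in 50 mM Tris-HCl pH 8, 0.01% Tween 20. Started with 1 mM NAD+ and 30 uM prostaglandin E2; NADH fluorescence (360/450 nm) read 5 times over 30-s intervals, last minus first.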
The depositor's hits bear a star; u = inconclusive; [ ] = dose if it differs, or a comment. % is set by controls: 0 for no effect and ±100 for the full control effect; potency is the fitted concentration of half-maximal effect. A portion of the library; rates above refer to the full screens.

nr | SMILES | HPGD inh
1 | c1cncc(-c2nc(Oc3ccc(-c4nnco4)cc3)c3c4c(sc3n2)CCCC4)c1 | -21%
2 | Cc1ccc(C)c(C(=O)CC2(O)C(=O)Nc3ccccc32)c1 (centres undefined) | 0%
3 | CS(=O)(=O)N(CC(=O)N1CCCC1)c1ccc(OCc2ccccc2)cc1 | -11%
4 | O=C(Cc1ccc(Cl)cc1)Nc1ccccc1N1CCOCC1 | -4%
5 | Cc1ccc(S(=O)(=O)/N=C(/NC(=S)Nc2ccccc2)c2ccccc2)cc1 | -26%
6 | Clc1ccccc1Cn1nnc2c(NCCN3CCOCC3)ncnc21 | -14%
7 | Cc1ccc(-c2nnn(CC(=O)N3CCCc4ccccc43)n2)cc1 | -14%
8 | Nc1nc2n(n1)C(c1ccco1)CC(c1ccc(Cl)c(Cl)c1)N2 (centres undefined) | u
9 | Cn1nc(-c2ccc(Cl)cc2)c2cc(C(=O)NCCCN3CCCC3)sc21 | u
10 | Cc1ccc2c(c1)C1C=CCC1C(C(=O)O)N2 (centres undefined) | 20µM*
11 | CCOC(=O)N1CCC(NC(=O)CNS(=O)(=O)c2ccc(Br)s2)CC1 | -2%
12 | COCCNC(=O)c1ccc(C(=O)C(=O)c2ccccc2)cc1 | 14µM*
13 | CN(C(=O)Nc1ccc(Cl)cc1Cl)[C@H]1c2cc(Br)ccc2OC[C@H]1CO | -20%
14 | COc1ccc(-c2nc3c(c(SCC(=O)N4CCOCC4)n2)COC(C)(C)C3)cc1 | -4%
15 | O=C(CCN1CCCCC1)N1CCc2c([nH]c3ccccc23)[C@H]1c1cccnc1 | -6%
16 | Brc1ccc(Oc2nsnc2N2CCOCC2)cc1 | -15%
17 | Cc1ccc2c(c1)NC(=O)C(CC(=O)NCCCN1CCc3ccccc3C1)O2 (centres undefined) | -18%
18 | COc1ccc(NC(=O)Cn2c(C)cc(=O)c3ccccc32)cc1 | -11%
19 | COc1ccc(-c2nc(NC(=O)c3ccc(OCC(=O)Nc4ccc(F)cc4)c(OC)c3)sc2C)cc1 | u
20 | COc1ccc(-c2nnc(SCC(N)=O)n2N)cc1 | -5%
21 | CCOc1ccc(Nc2nc(CC(=O)OC)cc(=O)[nH]2)cc1 | -11%
22 | COc1ccc(S(=O)(=O)N2CCN(C3Cc4ccccc4C3)CC2)cc1 | -1%
23 | NC1=C(c2ccc(F)cc2)C(=O)CS1 | 6.3µM*
24 | COc1ccc(S(=O)(=O)N2CCCN(CC(=O)Nc3ccc4c(c3)OCO4)CC2)cc1 | -4%
25 | Cc1ccc(-c2ccc(=O)n(CCC(=O)NCCN3CCCCC3C)n2)cc1 (centres undefined) | -1%

Next section (five carried over from the part before).
nr | SMILES | HPGD inh
21 | CCOc1ccc(Nc2nc(CC(=O)OC)cc(=O)[nH]2)cc1 | -11%
22 | COc1ccc(S(=O)(=O)N2CCN(C3Cc4ccccc4C3)CC2)cc1 | -1%
23 | NC1=C(c2ccc(F)cc2)C(=O)CS1 | 6.3µM*
24 | COc1ccc(S(=O)(=O)N2CCCN(CC(=O)Nc3ccc4c(c3)OCO4)CC2)cc1 | -4%
25 | Cc1ccc(-c2ccc(=O)n(CCC(=O)NCCN3CCCCC3C)n2)cc1 (centres undefined) | -1%
26 | COC(=O)c1ccc(C(/C=C/[C@@H](C)C(=O)NCCN2CCCC2)NC(=O)OCc2ccccc2)cc1 (some centres undefined) | -8%
27 | CCN(CC)S(=O)(=O)c1ccc(O)c(C(=O)OCC(=O)N(C)Cc2ccccc2)c1 | -20%
28 | O=C(CN1CCNCC1)Nc1ccc(Oc2ccccc2)cc1 | -1%
29 | COc1ccccc1N1CCN(C(=O)CSc2ccccc2)CC1 | -13%
30 | CC(=O)N[C@@H](Cc1ccc(O)cc1)C(=O)O | 1%
31 | O=C(Nc1ncc(Cc2ccccc2Cl)s1)C1CCCO1 (centres undefined) | -16%
32 | Oc1ccc2ccccc2c1/C=N/c1nccs1 | -25%
33 | CCc1ccc(N2CC(C(=O)OCC(=O)NC3CCS(=O)(=O)C3)CC2=O)cc1 (centres undefined) | -20%
34 | CCOC(=O)c1cccc(NC(=O)CSc2nnc(C3CCCCC3)n2C)c1 | -9%
35 | CC1CCN(CC(=O)N2c3ccccc3Sc3cc4ccccc4cc32)CC1 | -5%
36 | CCOC(=O)C1=C(C)NC(=O)NC1c1ccc(OC(=O)c2ccco2)cc1 (centres undefined) | -10%
37 | CCNc1nc2c(c(=O)[nH]c(=O)n2C)n1Cc1ccc(F)cc1 | -12%
38 | Cc1nc(NCCNC(=O)c2ccco2)c2c(C)c(C)sc2n1 | -17%
39 | Cc1cccc(NC(=S)NC2CC3CCCC(C2)N3Cc2cccs2)c1 (centres undefined) | -9%
40 | CC(=O)c1ccc(OCC(O)CN2CCC(C)CC2)cc1 (centres undefined) | -11%
41 | O=C(COc1ccc2ccccc2c1)NCCNC(=O)COc1ccc2ccccc2c1 | -12%
42 | CCCCNC(=O)NS(=O)(=O)c1ccc(C(=O)OC(C)C)o1 | -10%
43 | CCOC(=O)/C(C#N)=C/c1cc(C)n(-c2ccccc2)c1C | -23%
44 | CCN1CCN(CC(=O)Nc2cc(F)ccc2C)CC1 | -7%
45 | CC1=C(/C=C\C(=O)O)C(C)(C)CCC1 | -1%
46 | CCCOc1ccc(/C(O)=C2/C(=O)C(=O)N(CCN(C)C)C2c2ccc(OC)c(OC)c2)cc1 (centres undefined) | -10%
47 | CCOC(=O)CN1C(=O)S/C(=C/c2ccc(OC)c([N+](=O)[O-])c2)C1=O | 16µM*
48 | COc1ccc(C(=O)N(CN2CCCC2=O)c2ccc(C)cc2)cc1 | -12%
49 | CN1CSC2=C(C#N)C(c3cccc(OCc4ccccc4)c3)CC(=O)N2C1 (centres undefined) | 14µM*
50 | Cc1ccc(Cn2ccc(NC(=O)c3cc(-c4ccc(Br)cc4)on3)n2)cc1 | -27%
51 | COc1ccc(C)cc1S(=O)(=O)N(C)CC(=O)N1CCCCCC1 | -9%
52 | CC(C)CNS(=O)(=O)c1ccc(CCC(=O)Nc2ccc3c(c2)OCO3)cc1 | -5%
53 | Cc1ccc(CNC(=O)COC(=O)c2ccc(S(=O)(=O)N3CCCC3)cc2)cc1 | -7%
54 | C/C(=N/Nc1nc(-c2ccccc2)cc(-c2ccc(F)cc2)n1)c1cccc(N)c1 | -11%
55 | O=C(C#Cc1ccccc1)c1cccc([N+](=O)[O-])c1 | -12%
56 | CC(C)(C)n1ncc2c(=O)n(CC(=O)Nc3ccccc3)cnc21 | -10%
57 | Cc1nc(Cl)c(C(=O)NCCC(C)C)c(C)c1[N+](=O)[O-] | -11%
58 | COCCCNC(=S)NC(=O)c1ccc([N+](=O)[O-])cc1 | -5%
59 | O=C(/C=C/c1ccc(F)cc1)Nc1cccc(S(=O)(=O)Nc2cccc(C(F)(F)F)c2)c1 | -8%
60 | COc1ccc(C(=O)/C=C/c2ccc(OC(=O)c3cc(OC)c(OC)c(OC)c3)cc2)cc1 | -7%
61 | COc1ccc(C(=O)c2c(C)oc3ccc(O)c(CN4CCOCC4)c23)cc1 | -10%
62 | O=C(N/N=C/c1ccccc1F)NC1CCCCC1 | -16%
63 | O=C1NCCCC2c3c(cc(Br)c(O)c3Br)OC12N1CCOCC1 (centres undefined) | 32µM*
64 | COC(=O)C1=NN(C(C)=O)C2(CC(=O)N(c3cccc(C)c3)C2=O)C1 (centres undefined) | -4%
65 | CCn1c(SCC(=O)N2CCC(C)CC2)nnc1-c1ccc(S(=O)(=O)N2CCN(C)CC2)cc1 | -25%
66 | O=C(NC1CCCCCC1)c1c(O)c2ccccc2[nH]c1=O | -12%
67 | Cc1ccc(NC(=O)/C(=C/c2cccs2)NC(=O)c2ccco2)cc1 | -6%
68 | CCCn1c2c(c(O)c(C(=O)Nc3ccc(OCC)cc3)c1=O)CCCC2 | u
69 | Cc1nn(C)cc1C(C(=O)NC1CCCCC1)N(C(=O)Cc1cccs1)c1ccc(C(C)C)cc1 (centres undefined) | 0%
70 | CS(=O)(=O)N(CC(=O)NC1CCCC1)Cc1ccc(Cl)cc1 | -14%
71 | COc1ccc(C(CNC(=O)c2cc(C)oc2C)N2CCOCC2)cc1 (centres undefined) | -7%
72 | Cc1ccc(C(=O)N2CCOCC2)cc1[N+](=O)[O-] | -26%
73 | CCOC(=O)c1c(NC(=O)c2cnn3c2NC(c2cccc(OC)c2)CC3C(F)(F)F)sc2c1CCCC2 (centres undefined) | u
74 | CCOc1ccc(-c2nnc(-c3cccnc3)o2)cc1OCC | u
75 | COc1ccc(Oc2nc(SC)nc3ccccc23)cc1 | -14%

Along the list, quoted from above:
HPGD inh, entries 55–62: -12%, -10%, -11%, -5%, -8%, -7%, -10%, -16%

Other records
nr | SMILES | HPGD inh
76 | COc1ccc(S(=O)(=O)N(C)c2c(C)n(C)n(-c3ccccc3)c2=O)cc1OC | -11%
77 | O=c1c(CN2CCN(c3cccc(Cl)c3)CC2)coc2c(Cl)cc(Cl)cc12 | -10%
78 | CCCc1cc(=O)[nH]c(SCc2cc(C(=O)OC)c(C)o2)n1 | 16µM*
79 | CCSC(SCC)[C@H](O)[C@@H](O)[C@H](O)[C@H](O)CO | -6%
80 | CCN(CC)CCOC(=O)[C@@H](Cc1cccc2ccccc12)C[C@@H]1CCCO1 | -6%
81 | N#Cc1cn(CC(=O)N2CCCC2)c2ccccc12 | -2%
82 | CCOC(=O)c1c(-c2cccs2)csc1NC(=O)CN1CCOCC1 | -24%
83 | C=CCn1c(SCCC(=O)O)nc2c1c(=O)n(C)c(=O)n2C | -19%
84 | Nc1ncnc2c1C1(CCCCC1)Cc1ccccc1-2 | -23%
85 | Cn1c(Cn2c(=O)sc3ccccc32)nnc1SCC(=O)N1CCOCC1 | -13%
86 | CN1C(=O)N2CN(C3CCCCC3)CN3C(=O)N(C)C1C23 (centres undefined) | 6%
87 | CCc1cc(-c2n[nH]c(=S)n2-c2ccccc2C)cs1 | u
88 | O=C(Nc1cccnc1)c1ccc2snnc2c1 | -13%
89 | O=C(O)CCC(=O)N1CCc2cc(S(=O)(=O)NCc3cccs3)ccc21 | 25µM*
90 | CCOc1ccc(C(C)=O)cc1COc1ccc(-n2cnnn2)cc1 | 2%
91 | COc1ccccc1N1CCN(C(c2cccs2)C(C)NC(=O)c2cccs2)CC1 (centres undefined) | -11%
92 | CCN1CCN(Cc2c(O)ccc3c2O/C(=C\C=C\c2ccccc2OC)C3=O)CC1 | u
93 | COc1ccc(N(CC(=O)NCc2cccs2)S(=O)(=O)c2c(C)nn(C)c2C)cc1 | -8%
94 | COCCN1CCN(c2cc(-c3ccccc3)nc3cc(-c4cccc(F)c4)nn23)CC1 | u
95 | CC(=O)Nc1cccc(NC(=O)CSc2nnc(Cc3cccn3C)n2-c2ccc(F)cc2)c1 | -4%
96 | CC(C)C(=O)Nc1c(C(=O)c2ccc(F)cc2)oc2ccccc12 | u
97 | Cc1onc(-c2ccccc2)c1C(=O)Nc1ccc(-c2nnc3n2CCCCC3)cc1 | 7.1µM*
98 | Cc1ccc(C2CC(c3ccc(F)cc3)Nc3nc(N)nn32)cc1 (centres undefined) | -14%
99 | CSc1n[nH]c(NCc2ccc(C)cc2)n1 | -18%
100 | COc1ccc(C)cc1NC(=O)C(Sc1nnc(Nc2ccccc2F)s1)c1ccccc1 (centres undefined) | -12%
101 | Cc1cc(C)cc(NC(=S)NCCc2ccc(S(N)(=O)=O)cc2)c1 | -5%
102 | O=C(NC(c1ccccc1)c1ccccc1)c1ccc(Br)o1 | -2%
103 | O=C1OCCC1Sc1nnc(-c2ccc(Br)cc2)o1 (centres undefined) | -6%
104 | CC(C)Oc1cccc(C(=O)Nc2ccc(NC(=O)c3ccco3)cc2)c1 | -28%
105 | COCc1cc(C)nc(OCC(=O)N/N=C/c2ccc(-c3cc([N+](=O)[O-])ccc3C)o2)c1C#N | -25%
106 | O=C(Nc1ccc(Cl)c(Cl)c1)c1ccc(Cn2cc(Cl)cn2)cc1 | u
107 | CCCCCn1c(=O)c(Cc2ccccc2)c(O)c2ccccc21 | u
108 | c1ccc2c(-c3nn4nnnc4c4ccccc34)cccc2c1 | u
109 | CC(=O)c1cc(-c2ccccc2)n(CC(=O)N2CCN(C3CCCC3)CC2)c1C | -4%
110 | CC(C)=CCC(C)(C)CNC(=O)NC1CCCCC1 | -24%
111 | N#Cc1ccccc1Sc1ccccc1C(=O)OCC(=O)N1CCN(C(=O)c2ccco2)CC1 | u
112 | CC(C)[C@@H]1NC(=O)c2cc([N+](=O)[O-])cc(I)c2NCCCC[C@@H](C(=O)NC(CC(=O)O)C(N)=O)NC(=O)[C@H](CO)NC1=O (some centres undefined) | -6%
113 | CC(C)C(=O)N1CCC(c2nc(-c3ccc(S(=O)(=O)N4CCCC4)cc3)no2)CC1 | -5%
114 | CCC(C)n1c(=N)c(C#N)cc2c(=O)n3ccccc3nc21 (centres undefined) | 85%[activator]
115 | C/C(=N\N1CCN(c2ccc(Cl)cc2)CC1)c1cccs1 | -3%
116 | CCCCOc1ccc(/C=C/C(=O)OCC(=O)NC(=O)NCC(C)C)cc1OCC | u
117 | O=c1oc2ccc(Br)cc2cc1-c1nc2ccccc2o1 | -13%
118 | COC(=O)/C=C1/S/C(=N/N=C/c2ccc(N(C)C)cc2)NC1=O | -5%
119 | COc1ccc(NC(=O)c2cc(-c3ccccc3)oc2C)cc1 | 22µM*
120 | COc1ccc(NC(=S)NCC2CCCO2)c(C)c1 (centres undefined) | -28%
121 | O=C(/C=C/c1ccccc1)NCCSCc1ccccc1 | 3.2µM*
122 | CC1=C(CC/C(C)=N/NC(N)=S)C(C)(C)CCC1 | -19%
123 | Cn1c(/C=N/n2cnnc2)nc2ccccc21 | u
124 | O=C1C(=O)N(CCN2CCOCC2)C(c2ccncc2)/C1=C(/O)c1ccc2c(c1)OCO2 (centres undefined) | -8%
125 | NC(=O)C(c1ccccc1)c1ncc(C(F)(F)F)cc1Cl (centres undefined) | -9%
126 | COC(=O)c1ccccc1Nc1ccccc1 | -9%
127 | O=C(c1cccc(-n2cnnn2)c1)N1CC=C(c2ccccc2)CC1 | u
128 | CC(=O)N1CCC[C@@]2(CCN(Cc3ccc(C#N)cc3)C2)C1 | -7%

Source: PubChem BioAssay
